Assay outcomes (PubChem BioAssay)
RE007 growth inh = less growth of the S. pombe RE007 Vpr strain; S. pombe RE007 Vpr strain, BacTiter-Glo ATP luminescence, 24 h; control for the full effect not named in the record; 0.21% of 360,000 active; Potency, µM (series often up to 92.2 µM), without a hit: at the highest dose activity change, negative = less growth; active = well fitted falling curve with a large enough effect; inconclusive = small, poorly fitted or top-dose-only effect; inactive = no such curve, though single readings can be large or run the other way;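 further: on the % scale 0 is the no-effect control and ±100 the full control effect; nearly all actives have a fitted effect of over 50% in size; the assay follows cell death caused by Vpr and the record does not say whether a fall means rescue or toxicity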
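Fission yeast RE007 carrying one integrated HIV-1 vpr copy, seeded at OD 0.01 in PMG+AL medium with 23 nL pinned compound. Grown 24 h at 30 degrees; viability read by BacTiter-Glo luminescence after 5 min.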
MARV entry inh = blocks Marburg virus binding to or entry into cells; Marburg virus pseudotyped entry inhibition, cell reporter; control for the full effect not named in the record; about a third of the inactives were read at about 46 µM; Potency, µM (top dose mostly 37.8 µM), without a hit: top-dose activity change, negative = inhibition, hits mostly inhibitors; 1.8% of 300,000 active; active = well fitted inhibition curve with a large enough effect; inconclusive = small, poorly fitted or top-dose-only effect, or effect the other way; inactive = flat fitted curve, though single readings scatter; tested in HEK293 cells; about a fifth of its hits are not listed in these tables; further: on the % scale 0 is the no-effect control and ±100 the full control effect; luciferase read-out
Lassa entry inh = inhibitors of Lassa virus binding or cell entry; Lassa virus pseudotype entry inhibition, cell reporter; control for the full effect not named in the record; Potency, µM (doses to about 37.9 µM), for the others: at the top dose activity change, negative = inhibition, most hits filed as inhibitors; 1.2% of 300,000 active; active means well fitted inhibition curve with a large enough effect; inconclusive means small, poorly fitted or top-dose-only effect, or effect the other way; inactive means flat fitted curve, though single readings scatter; tested in HEK293 cells; further: on the % scale 0 is the no-effect control and ±100 the full control effect; nearly all actives have a fitted effect of over 50% in size; luciferase read-out
SARS PLP yeast = blocks SARS-CoV papain-like protease in a yeast assay; 0.19% of 330,000 active; Potency, µM (top dose mostly 32.9 µM), for inactives: top-dose activity, positive = growth rescue; S. cerevisiae expressing SARS-CoV PLpro, growth rescue; control for the full effect not named in the record; further: 0% is about no effect; nearly all actives have a fitted effect of over 55% in size; growth read by luminescence after 48 h
Cruzain inh noDet = blocks cruzain activity in detergent-free assay; AID 1476; 2.3% of 200,000 active; Potency, µM, without a hit: max response, negative = inhibition, actives largely listed as inhibitors; P25779; purified cruzain, Z-FR-AMC fluorescence, no detergent; active means well fitted curve in the direction sought with a large enough effect; inconclusive means small, poorly fitted or top-dose-only effect, or another doubt; inactive means no such curve, though single readings can be large; an effect the other way counts as inactive or inconclusive;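 further: plate controls were enzyme without inhibitor for no effect and buffer without enzyme for full effect; nearly all actives have a fitted effect of over 40% in size; top concentration of the series not given in the record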
Target sequence (P25779 123-467 limits assumed): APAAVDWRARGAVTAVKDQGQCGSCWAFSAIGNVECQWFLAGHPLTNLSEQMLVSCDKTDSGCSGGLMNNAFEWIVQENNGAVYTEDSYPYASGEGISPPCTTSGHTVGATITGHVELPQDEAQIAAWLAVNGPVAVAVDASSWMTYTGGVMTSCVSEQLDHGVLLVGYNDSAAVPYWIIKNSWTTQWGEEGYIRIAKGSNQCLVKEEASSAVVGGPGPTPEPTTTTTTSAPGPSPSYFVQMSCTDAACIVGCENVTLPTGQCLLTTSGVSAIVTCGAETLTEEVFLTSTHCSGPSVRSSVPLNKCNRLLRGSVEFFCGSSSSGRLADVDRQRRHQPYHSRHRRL
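Purified cruzain at 1.5 nM, pre-incubated 15 min with compound at room temperature in 100 mM sodium acetate pH 5.5, 5 mM DTT, 0.00005% Triton X-100. Reaction started with 2 uM Z-FR-AMC; AMC fluorescence increase over 60 s gives rate.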
NS1 function inh = inhibitors of influenza NS1 protein function | S. cerevisiae slowed by influenza A NS1, growth recovery by OD600 | Potency, µM (top dose mostly 46.1 µM), for the others: top-dose activity, positive = more growth | 0.4% of 270,000 active | AID 2326; further: actives are rising curves; nearly all actives have a fitted effect of over 50% in size
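A cell-based growth assay was used: compounds that relieve NS1-induced slow growth of budding yeast raise OD600. Assay medium was yeast nitrogen base with ammonium sulphate and -URA supplement, pH 6.0, with 2% galactose.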
2A StopGo = lowers the luciferase signal of an FMDV 2A StopGo reporter. human cells with a luciferase reporter of 2A StopGo recoding; control for the full effect not named in the record. 1.2% of 410,000 active. Potency, µM (doses to about 57.9 µM), inactives show at the top dose signal change, negative = less light; active = well fitted falling curve with a large enough effect; inconclusive = small, poorly fitted or top-dose-only effect; inactive = no such curve, though single readings can be large or run the other way; tested in HEK293T cells; further: on the % scale 0 is the no-effect control and ±100 the full control effect; nearly all actives have a fitted effect of over 45% in size; luciferase light after 4 h
Cruzain inh Det = blocks cruzain activity in presence of Triton detergent | purified cruzain, Z-FR-AMC fluorescence, 0.01% Triton | Potency, µM, for the others: max response, negative = inhibition, hits mostly inhibitors | 0.43% of 200,000 active | AID 1478; active means well fitted curve in the direction sought with a large enough effect; inconclusive means small, poorly fitted or top-dose-only effect, or another doubt; inactive means no such curve, though single readings can be large; an effect the other way counts as inactive or inconclusive;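 further: plate controls were neutral wells for no effect and buffer without enzyme for full effect; nearly all actives have a fitted effect of over 40% in size; top concentration of the series not given in the record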
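Cysteine protease activity tested under reducing, mildly acidic conditions (100 mM sodium acetate pH 5.5, 5 mM DTT) plus 0.01% Triton X-100. Cruzain 1.5 nM; substrate Z-FR-AMC 2 uM; 15 min compound preincubation at room temperature.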
Starred values were filed as active, the others as inactive; & = joins results of further samples; [ ] = remark or other dose. Unless noted, the call rests on the fitted dose curve; in most records, active means well fitted rising curve with a large enough effect; inconclusive means small, poorly fitted or top-dose-only effect; inactive means no such curve, though single readings can be large or run the other way. Potency means the concentration at half of the fitted maximal effect.

Screening CC1CC(C)CN(S(=O)(=O)N2CCC(C(=O)NCCC3=CCCCC3)CC2)C1 (centres undefined) returned RE007 growth inh 3.4%, MARV entry inh 4.4%, Lassa entry inh -0.1%, SARS PLP yeast -0.1% and 2A StopGo -20.3%.
O=C(Nc1nccs1)C1CCN(S(=O)(=O)c2cnc[nH]2)CC1 was read as RE007 growth inh 8.5%, MARV entry inh 26.9%, Lassa entry inh 20.8%, SARS PLP yeast 1.1%, Cruzain inh noDet 13.3%, NS1 function inh inconclusive, 2A StopGo 7.2% and Cruzain inh Det -2.3%.
`COc1ccc(/C=C(/NC(=O)c2ccco2)C(=O)Nc2ccc(C(=O)O)cc2)cc1` gave RE007 growth inh -6.7%, MARV entry inh -2.3%[46.1 µM], SARS PLP yeast -0.5%, NS1 function inh 10.5% and 2A StopGo 2.4%.
For COc1cc(NS(=O)(=O)c2ccc3c(c2)CC(=O)N3)cc(OC)c1OC the results were MARV entry inh 9.6%[46.1 µM], Lassa entry inh inconclusive, Cruzain inh noDet 33.4%, 2A StopGo 26.7% and Cruzain inh Det -6.3%.
Screening O=C(NCCc1cccnc1)c1cc(COc2ccc(F)cc2Cl)on1 returned RE007 growth inh -11.3%, MARV entry inh 16.7%, Lassa entry inh inconclusive, SARS PLP yeast -2.7%, NS1 function inh -30.7% and 2A StopGo -16.1%.
`NS(=O)(=O)c1ccc(CCNC(=O)[C@@H]2CCCN2S(=O)(=O)c2ccccc2F)cc1` gave RE007 growth inh 7.8%, MARV entry inh -21.5%, Lassa entry inh 2.7%, SARS PLP yeast 13.0%, Cruzain inh noDet 3.1%, NS1 function inh 23.4%, 2A StopGo 0.0% and Cruzain inh Det 0.1%.
For Cc1c(S(=O)(=O)NC2CCCCCC2)c(=O)n(C)c(=O)n1C the results were RE007 growth inh 0.1%, MARV entry inh 5.1%, Lassa entry inh -2.8%, SARS PLP yeast 1.6% and 2A StopGo -1.7%.
`Nn1c(SCc2ccccc2F)nnc1-c1ccncc1` gave RE007 growth inh -7.5%, MARV entry inh 18.6%, Lassa entry inh -1.3%, SARS PLP yeast 1.2%, NS1 function inh 5.8% and 2A StopGo 44.5%[activator].
Screening CCOC(=O)c1c(-c2ccccc2)csc1NC(=O)c1cccc(N2C(=O)CCC2=O)c1 returned RE007 growth inh -4.8%, MARV entry inh -20.0%, Lassa entry inh -8.0%, SARS PLP yeast -2.0%, Cruzain inh noDet inconclusive, NS1 function inh 18.8%, 2A StopGo -17.3% and Cruzain inh Det -9.5%.
Screening COc1cc2c(cc1OC)C1(CCCCC1)CN(C)C2 returned RE007 growth inh -6.8%, MARV entry inh -2.0%[46.1 µM], Lassa entry inh 0.1%, SARS PLP yeast 3.4%, NS1 function inh -5.0% and 2A StopGo -4.2%.
`Cc1cc(F)ccc1NCc1ccccc1[N+](=O)[O-]` gave RE007 growth inh -20.8%, MARV entry inh inconclusive, Lassa entry inh 5.8%[46.1 µM], SARS PLP yeast 0.0%, NS1 function inh 2.7% and 2A StopGo -16.8%.
`COC(=O)[C@H](Cc1ccccc1)NC(=O)NCCC1=CCCCC1` gave RE007 growth inh 14.4%, MARV entry inh -11.9%, Lassa entry inh -0.2%, SARS PLP yeast 0.4%, Cruzain inh noDet 0.9%, NS1 function inh 11.4%, 2A StopGo 1.4% and Cruzain inh Det -0.1%.
COc1ccc(/C=C(\NC(=O)c2ccccc2)C(=O)NCCN2CCOCC2)cc1 was read as RE007 growth inh 6.2%, MARV entry inh inconclusive, Lassa entry inh 4.9%[46.1 µM], SARS PLP yeast 2.7%, NS1 function inh 6.3% and 2A StopGo -9.0%.
COc1cccc(CNC(=O)c2oc3ccc4c(c3c2C)C(=O)CC(C)(C)O4)c1OC was read as MARV entry inh 18.5%[46.1 µM], Cruzain inh noDet inconclusive, 2A StopGo 9.8% and Cruzain inh Det -4.5%.
Screening CC(=NCc1ccco1)c1c(C(F)(F)F)[nH]n(-c2nc3ccccc3s2)c1=O returned RE007 growth inh inconclusive, MARV entry inh -23.4%, Lassa entry inh -8.2%, SARS PLP yeast -19.1%, Cruzain inh noDet inconclusive, NS1 function inh 10.5%, 2A StopGo 1.6% and Cruzain inh Det -16.5%.
O=C(c1cccc(S(=O)(=O)N2CCOCC2)c1)N(CCO)Cc1ccccc1 was read as RE007 growth inh -1.0%, MARV entry inh -8.3%[46.1 µM], Lassa entry inh 0.9%, SARS PLP yeast -0.8%, Cruzain inh noDet 1.5%, NS1 function inh 3.7%, 2A StopGo 15.2% and Cruzain inh Det 5.1%.
`Cn1c(SC2C(=O)CC(C)(C)CC2=O)nnc1-c1ccco1` gave RE007 growth inh -7.4%, MARV entry inh -3.2%, Lassa entry inh -1.8%, SARS PLP yeast 1.7%, Cruzain inh noDet 3.9%, NS1 function inh 6.0%, 2A StopGo -4.1% and Cruzain inh Det 2.7%.
CCOc1cc(NC(=O)c2cnccn2)c(OCC)cc1NC(=O)c1ccc(OC)cc1 was read as SARS PLP yeast 9.1%, Cruzain inh noDet inconclusive, NS1 function inh -16.1% and Cruzain inh Det 1.9%.
CC1=C(C(=O)NCc2ccccc2)C(c2ccccc2OCC(N)=O)NC(=O)N1 (centres undefined) was read as RE007 growth inh -2.4%, MARV entry inh 8.0%, Lassa entry inh -10.6%, SARS PLP yeast 6.2%, Cruzain inh noDet -6.4%, NS1 function inh -4.2% and Cruzain inh Det 5.4%.
For Cc1cc(OCC(=O)NCCCn2ccnc2)c2c(C)cc(=O)oc2c1 the results were RE007 growth inh -3.9%, SARS PLP yeast -6.0%, NS1 function inh 6.5% and 2A StopGo -12.0%.
Screening Cc1oc2cc(O)ccc2c(=O)c1Oc1ccc2ccccc2c1 returned RE007 growth inh 0.2%[3.69 µM], MARV entry inh 0.7%, Lassa entry inh -12.6%, SARS PLP yeast -3.1%, Cruzain inh noDet -7.2%, NS1 function inh -8.9%, 2A StopGo -11.4% and Cruzain inh Det -4.6%.
O=C(N/N=C/c1cccc(OCC(=O)N2CCCC2)c1)C(=O)Nc1ccccc1F was read as RE007 growth inh 4.9%, MARV entry inh 17.8%, Lassa entry inh 27.6%, SARS PLP yeast 8.0%, Cruzain inh noDet -6.3%, NS1 function inh -0.1%, 2A StopGo inconclusive and Cruzain inh Det -5.0%.
`Cc1ccc2c(c1)c(C)c(C)n2CC(O)CN1CCCCC1C` (centres undefined) gave RE007 growth inh 11.4%, SARS PLP yeast 5.1%, Cruzain inh noDet 1.9%, NS1 function inh -8.7%, 2A StopGo -18.3% and Cruzain inh Det 1.8%.
Screening Cc1ccc(C(NC(=O)/C=C\c2ccc3c(c2)OCO3)C(=O)Nc2ccc3c(c2)OCO3)cc1 (centres undefined) returned RE007 growth inh -1.4%, MARV entry inh inconclusive, Lassa entry inh 6.9%, SARS PLP yeast -1.9%, Cruzain inh noDet 31.6µM*, NS1 function inh 1.5%, 2A StopGo 12.3% and Cruzain inh Det -3.5%.
For CCc1nn(CC(=O)NCCCN(CC)CC)c(=O)c2cc3sc(C)cc3n12 the results were RE007 growth inh inconclusive, MARV entry inh inconclusive, Lassa entry inh -7.7%, SARS PLP yeast -3.2%, Cruzain inh noDet -8.4%, NS1 function inh 0.8%, 2A StopGo -16.0%&10.3% and Cruzain inh Det -4.8%.
CCN(C(=O)CN1CCN(c2cccc(C(F)(F)F)c2)CC1)c1c(N)n(Cc2ccccc2)c(=O)[nH]c1=O was read as RE007 growth inh 2.7%, MARV entry inh 2.6%[46.1 µM], Lassa entry inh inconclusive, SARS PLP yeast 0.6%, NS1 function inh -4.3% and 2A StopGo inconclusive.
`COC(=O)CCCNc1ncccc1[N+](=O)[O-]` gave RE007 growth inh -1.3%, MARV entry inh -16.0%[46.1 µM], Lassa entry inh -5.2%, SARS PLP yeast 4.2% and 2A StopGo 8.7%.
`COc1ccccc1Nc1ncnc2ccccc12` gave RE007 growth inh -18.9%, MARV entry inh -5.0%, Lassa entry inh inconclusive, SARS PLP yeast -2.9%, Cruzain inh noDet -2.2%, NS1 function inh -10.5%, 2A StopGo 10.1% and Cruzain inh Det -2.1%.
For CCn1c(SCC(=O)Nc2ncc(C(F)(F)F)cc2Cl)nnc1-c1ccccc1 the results were RE007 growth inh 2.3%, SARS PLP yeast 11.5%, Cruzain inh noDet 9.2%, NS1 function inh 11.0%, 2A StopGo 4.3% and Cruzain inh Det -2.5%.
For Cn1c(=O)n(C)c2cc(CNCc3ccc(F)cc3)ccc21 the results were MARV entry inh 2.5%[46.1 µM], Lassa entry inh 2.7%[46.1 µM], Cruzain inh noDet -6.1%, 2A StopGo -13.4% and Cruzain inh Det 0.6%.
Screening Fc1cccc(Cn2cc(C(=S)N3CCOCC3)c3ccccc32)c1 returned RE007 growth inh 2.5%, MARV entry inh 5.7%, Lassa entry inh -3.1%, SARS PLP yeast -1.1%, NS1 function inh 4.4% and 2A StopGo 11.7%.
Cc1ccccc1NS(=O)(=O)c1ccc(C(=O)OCC(=O)NCC(C)C)cc1 was read as RE007 growth inh 2.4%, MARV entry inh 20.6%[46.1 µM], Lassa entry inh 10.7%[46.1 µM], SARS PLP yeast -0.6%, NS1 function inh 12.9% and 2A StopGo -4.3%.
Screening COc1ccc(NC(=O)Cn2ncc(Cl)c(Cl)c2=O)cc1S(=O)(=O)N1CCOCC1 returned MARV entry inh inconclusive, Lassa entry inh inconclusive, SARS PLP yeast -10.6%, Cruzain inh noDet -8.7%, NS1 function inh 20.6%, 2A StopGo 39.8µM* and Cruzain inh Det -8.1%.
`COc1cccc(CN(CC(=O)NC2CCCC2)C(=O)Cn2nnc(-c3cccs3)n2)c1` gave RE007 growth inh 7.2%, MARV entry inh -29.6%, Lassa entry inh -25.4%, SARS PLP yeast 0.5%, Cruzain inh noDet -3.2%, NS1 function inh 1.9%, 2A StopGo 19.1% and Cruzain inh Det 0.0%.
Screening COc1cccc(C(C(=O)NC2CCCC2)N(C(=O)c2ccco2)c2ccc(-n3cnnn3)c(C)c2)c1OC (centres undefined) returned RE007 growth inh -22.6%, MARV entry inh inconclusive, Lassa entry inh -29.1%[46.1 µM], SARS PLP yeast 0.0%, NS1 function inh -5.8% and 2A StopGo 15.0%.
For O=C(CSc1nccn1-c1ccc(Cl)cc1)Nc1ccc(Cl)c(Cl)c1 the results were Lassa entry inh -27.9%[46.1 µM], Cruzain inh noDet 19.9%, 2A StopGo -23.0% and Cruzain inh Det -5.2%.
